# Source: PubChem
# AID504770 = E. coli YBA685 growth inhibition, screen for V. cholerae RctB inhibitors; AID 504770; z-score (concentration not given with the values); E. coli YBA685 rctB-dependent plasmid, OD600 growth, 3 h; active compounds read low; 0.27% of 130,000 active;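 active = z-score under -2 on both plates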;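 also: wells of about 30 µL received 100 nL stock; score is relative to mean and SD of the test wells; the first replicate is given; strong numbers were not always called active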
# CapD inh = CapD enzyme inhibition; z-score (no concentration beside the values); 0.23% of 140,000 active; purified CapD enzyme, fluorescence intensity read-out; active compounds read low; some hits fall short of the stated cut; AID 492967;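 active = z-score under -4 in either of two replicates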;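 also: stock transfer was 100 nL into about 40 µL; score is relative to mean and spread of the plate; one replicate is shown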
# An asterisk follows results filed as active; . = no result given; & = joins results of further samples. Random draw from the library, and some 0.37% of all compounds hit somewhere here.
# Sample of the layout, 4 compounds:
SMILES | AID504770 | CapD inh
Cc1ccc(Oc2ccccc2)c(NC=O)c1 | 0.1 | .
CCCCCCCC(=O)NC1C(OC(C)=O)OC(COC(C)=O)C(OC(C)=O)C1OC(C)=O (centres undefined) | . | 0.08
O=C(Cn1c2ccccc2c(=O)c2ccccc21)Nc1ccc([N+](=O)[O-])c(Br)c1 | . | 5.4
Cc1cc(C)cc(NC(=O)c2cc(-c3ccco3)nc3ccccc23)c1 | -0.2 | 5.69

# The list itself (from the top)
SMILES | AID504770 | CapD inh
Cc1ccc(Oc2ccccc2)c(NC=O)c1 | 0.1 | .
CCCCCCCC(=O)NC1C(OC(C)=O)OC(COC(C)=O)C(OC(C)=O)C1OC(C)=O (centres undefined) | . | 0.08
O=C(Cn1c2ccccc2c(=O)c2ccccc21)Nc1ccc([N+](=O)[O-])c(Br)c1 | . | 5.4
Cc1cc(C)cc(NC(=O)c2cc(-c3ccco3)nc3ccccc23)c1 | -0.2 | 5.69
Cc1c(C(=O)Nc2ccc3c(c2)OCO3)sc2ncnc(N3CCN(c4ccccc4)CC3)c12 | . | 0.295
Cc1sc2ncnc(OCC(=O)N(C)Cc3ccco3)c2c1C | 1.05 | .
Cc1ccc(C(=O)C2C(=O)c3ccccc3C2=O)cc1 | -0.2 | -0.04
O=C(Oc1ccccc1)c1cccnc1Oc1ccccc1 | -0.7 | 0.025
CC(NCc1ccc(F)cc1)C(=O)NC1CCCCC1 (centres undefined) | -0.55 | .
Cc1nnc2n1N=C(c1ccc(OC(F)F)cc1)C(C)S2 (centres undefined) | 1.35 | .
Cc1ccc(/C(C#N)=C/c2ccco2)cc1 | . | -1.29
CCSc1nnc(-c2ccc(OC)cc2)n1C1CCCCC1C (centres undefined) | 0.3 | .
O=C(c1cnn(C(=O)c2ccccc2)c1)c1ccccc1O | 0.3 | .
COC(=O)c1ccccc1NC(=O)c1sc2nc(C)nc(N3CCCCC3C)c2c1C (centres undefined) | . | -0.705
CSc1n[nH]c(-c2ccco2)n1 | 0.55 | 0.68

# Reformatted field by field: entries from further up.
Compound: Cc1ccc(Oc2ccccc2)c(NC=O)c1
  AID504770: 0.1
  CapD inh: .

Compound: CC(NCc1ccc(F)cc1)C(=O)NC1CCCCC1 (centres undefined)
  AID504770: -0.55
  CapD inh: .

Compound: CCSc1nnc(-c2ccc(OC)cc2)n1C1CCCCC1C (centres undefined)
  AID504770: 0.3
  CapD inh: .

Compound: CSc1n[nH]c(-c2ccco2)n1
  AID504770: 0.55
  CapD inh: 0.68

# Next part:
SMILES | AID504770 | CapD inh
CC(C)C(=O)/C=C1/Sc2ccccc2N1C | -0.4 | 22.4
CNc1nc2c(-c3ccc(Cl)cc3)nnn2c2ccccc12 | -0.05 | 1.13
Cc1cc(-c2ccccc2)nc(SCC(=O)O)n1 | . | -0.55
CCCCN(CC)C(=O)c1sc2nc(C)nc(N3CCOCC3)c2c1C | . | -0.12
O=C(NCc1csc2ccccc12)OCC1CCCCN1Cc1ccco1 (centres undefined) | . | 0.46
Clc1ccc(Oc2ccc(N=Cc3ccc(I)o3)cc2)cc1 | -0.7 | 0.075
COC(=O)CN1C(c2ccccc2Br)=Nc2ccc(Br)cc2C1c1ccccc1 (centres undefined) | . | 0.755
COc1ccc(-c2c(C)c(-c3ccc(Cl)cc3)nc(N)c2C#N)cc1 | . | 8.08
CN(Cc1ccccc1)C(=O)c1ccc2c(c1)N(Cc1ccccc1)C(=O)c1ccccc1S2(=O)=O | 2.15 | -0.225
Cc1cccc(C(=O)N2c3ccccc3N3C(c4c(C)cc(C)cc4C)=NON23)c1 | . | 1
Cc1nc2cc(C(=O)O)ccc2n1C1CCCCC1 | -0.15 | .
CCCNC(=O)c1ccc2c(c1)ncn2-c1cccc(C)c1 | 0.6 | 0.57
COC(=O)c1csc2c(C(F)(F)F)cc(N3CCN(C(=O)c4cccs4)CC3)nc12 | . | 1.6
COc1ccc(Nc2c(-c3ccc(N4CCOCC4)cc3)nc3cnccn23)cc1 | -0.65 | -0.375
Cc1c(OCc2ccc(F)cc2)c(=O)ccn1Cc1ccc(Cl)c(Cl)c1 | . | -0.215
CN(C)CCN1CCN(C(=O)OCCc2cccc(Cl)c2)CC1 | . | 0.035
CCOC(=O)c1c(C)[nH]c(/C(C)=N\O)c1C | 0.3 | 6.03
Cc1ccc(Nc2cc(N(C)C)c3nonc3c2[N+](=O)[O-])c(C)c1 | . | -0.025
CC(=O)OC(CN1CCCC1)C(C)(C)C (centres undefined) | 1.9 | 3.69
CCOC(=O)c1nnc2cc(-c3cccs3)sc2n1 | -0.15 | -0.345
CC1(C)OC(=O)NC1=O | 0.45 | -0.975&-0.515
O=C(c1ccc(S(=O)(=O)N2CCCCC2)cc1)N1CCN(Cc2nc3ccccc3s2)CC1 | -0.5 | .
CC(=O)Oc1ccc2c(=O)c(-c3csc(C)n3)coc2c1 | -0.35 | 0.585
O=c1[nH]cnc2c1ncn2COCCO | 0.7 | 0.125
CCCCOc1ncnc2c1ncn2CCCl | . | 0.13
CCOC(=O)C1CCCN(c2cc(NCCCO)c([N+](=O)[O-])c3nonc23)C1 (centres undefined) | . | -2.56
CCN(CC)C(N)=S | -0.2 | .
Nc1c(C(=O)c2ccccc2)sc2nc(C3CC3)cc(-c3ccco3)c12 | . | -0.82
CCn1nnc2cc(C(=O)NCc3ccccc3CN3CCCC3)ccc21 | -0.4 | .
Cc1nnc(SC(C)C(=O)NCc2ccccc2)[nH]c1=O (centres undefined) | -0.05 | .

# Compound profiles (already shown):
# CCn1nnc2cc(C(=O)NCc3ccccc3CN3CCCC3)ccc21 across the screens: AID504770 = -0.4; CapD inh = .
# CC(=O)Oc1ccc2c(=O)c(-c3csc(C)n3)coc2c1 across the screens: AID504770 = -0.35; CapD inh = 0.585

# (further entries)
SMILES | AID504770 | CapD inh
Cc1ccc(N=C(NOCc2ccc(Cl)cc2Cl)c2nonc2N)c(C)c1 | . | -0.185
CCOc1ccc(CNC(=O)CCn2nc(C)cc2C)cc1OC | -0.05 | -0.215
Nc1nc(C23CC4CC(CC(C4)C2)C3)[nH]c(=O)n1 | . | 0.59
CC(=O)Nc1ccc2c(c1)sc(=NC(=O)c1cccs1)n2C | 2.15 | .
CCNc1nc(Cl)nc(NC2CCCCC2)n1 | -0.5 | .
O=C(Cn1cnc2sc3c(c2c1=O)CCC3)Nc1ccc(Oc2ccccc2)cc1 | 1.9 | -0.795
CN(C(=O)Nc1ccccc1)C1CCCc2ccccc21 (centres undefined) | 0.2 | .
Cc1nnc(Sc2cc(C(=O)NCc3ccccn3)c3ccccc3n2)s1 | -0.9 | 0.07
Nc1nc(-c2csc3ccccc23)cs1 | . | 0.06
CC(CC(=O)c1cccs1)C(=O)c1ccccc1 (centres undefined) | -0.7 | -0.31
CCOc1cc(C2C(C#N)=C(N)Oc3c2c(=O)oc2ccccc32)cc([N+](=O)[O-])c1O (centres undefined) | . | -0.42
CN1C(=O)/C(=C\c2cccs2)c2ccccc21 | 0.05 | -3.07
Fc1ccc(-c2nc(-c3ccncc3)ncc2-c2ccncn2)cc1 | . | -0.48
O=C(NCc1ccco1)C(C(=O)c1ccccc1)n1ccccc1=O (centres undefined) | -0.7 | .
O=C(OCc1nc2ccccc2s1)C1CCCCC1 | -0.35 | .
Cc1ccc(NC(=O)COC(=O)CSc2n[nH]c(-c3ccccc3)n2)cc1 | 0.15 | -0.475
O=C(Nc1ccc2c(c1)OCCO2)C1CCCN(S(=O)(=O)Cc2ccccc2)C1 (centres undefined) | 1.1 | .
COC(=O)c1ccc2oc(=O)c(S(=O)(=O)c3ccccc3)cc2c1 | 1.6 | 0.72
C=CCn1c(CNC(=O)c2cccs2)nnc1SCC(=O)Nc1nc2ccccc2s1 | -0.75 | -0.325
O=c1oc(-c2cccc(C(F)(F)F)c2)nn1-c1ccc(C(F)(F)F)cn1 | -1.25 | 0.135
CCOC(=O)c1cccc(NC(=O)CCn2ccc(C)n2)c1 | -0.15 | -0.74
CCOc1cc2c(cc1OCC)C1C(C(=O)NCCOC)c3ccccc3C(=O)N1CC2 (centres undefined) | -0.55 | 0.25
NC(=O)C1CCN(C(=O)c2ccc3c(=O)n(C4CCCCC4)c(SCc4cccc(F)c4)nc3c2)CC1 | . | 0.14
O=C(NC1CCCC1)c1nnc(Cc2ccc(F)cc2)o1 | 0.2 | 0.375
N#Cc1ccccc1COC(=O)c1ccc2c(=O)n3c(nc2c1)CCCCC3 | 0.3 | .
Cc1oc(-c2ccc(Cl)cc2)nc1CS(=O)CC(=O)N1CCC2(CC1)OCCO2 (centres undefined) | -0.95 | -0.33
O=c1[nH]cc(N=Cc2cccnc2)c(=O)[nH]1 | -0.15&-0.9 | 1.31
CNc1snc(C)c1C#N | -0.6 | .
OC(CN1CCOCC1)c1ccccc1 (centres undefined) | -1.2 | -0.22
Cc1cc2nc(N(C)Cc3cccnc3)c3ccccc3n2n1 | 0.65 | .

# Later entries:
# Screens in order: AID504770 | CapD inh
COC(=O)CCS(=O)(=O)c1ccc(Cl)cc1
 : 1.9 | 0.1
COc1ccc2cc3c(N)nn(C(=O)Cc4c[nH]c5ccccc45)c3nc2c1
 : -0.25 | 0.285
O=S(=O)(c1ccc(F)c(F)c1)N(Cc1ccco1)CC1CCCO1 (centres undefined)
 : . | -1.11
O=C(O)CCNC(=O)Nc1cccc2ccccc12
 : -0.55 | 9.1
CC(C)(C)c1ccc(OCCCC(=O)OCc2ccco2)cc1
 : -0.3 | .
COc1cc(C(c2c(C)[nH]n(-c3ccccc3)c2=O)c2c(C)[nH]n(-c3ccccc3)c2=O)ccc1O
 : . | -0.58
CCCCCCC[N+](CC)(CC)CCCCc1ccc(Cl)cc1
 : . | -2.12
CC(C)C(C(=O)N1CCN(c2ccc(C(F)(F)F)cn2)CC1)c1ccc(Cl)cc1 (centres undefined)
 : 0.3 | .
CC(C)C1NC(=O)NC1=O (centres undefined)
 : 0.3 | .
CCOc1ccc(C2C(N3C(=O)c4c(Cl)c(Cl)c(Cl)c(Cl)c4C3=O)C(=O)N2c2ccc(Br)cc2)cc1 (centres undefined)
 : . | 0.07
COC(=O)c1ccccc1NC(=O)c1ccc2nc(N3CCCCC3)sc2c1
 : 0.15 | 16.3
CCOc1ncccc1C(=O)OCc1ccc(O)c2ncccc12
 : 0.6 | .
N#CCC(=O)Nc1nc2ccccc2nc1Cl
 : 0.7 | 11.7
CCc1nnc(N2C(=O)c3ccccc3C2(O)c2ccccc2)s1 (centres undefined)
 : -1.05 | 0.075
Cc1cc(C)c2c(=O)[nH]c(SCC(=O)O)nc2n1
 : 0.05 | 0.83
COc1ccc(OC)c(C2=NOC(C(=O)NC3CCCC3)C2)c1 (centres undefined)
 : -0.95 | 14.8
COc1ccc(C(=O)Nc2ccc(Oc3ccccc3)cc2)cc1I
 : -0.15 | -0.095
O=C(Cc1ccccc1)Nc1ccc(-c2nc3cccnc3s2)cc1
 : 2.1 | 0.68
COc1ccc2nc(C)cc(SCC(=O)O)c2c1
 : -1 | .
O=C(c1cncn1-c1ccccc1)N1CCCC(c2nc3ccccc3s2)C1 (centres undefined)
 : -0.15 | .
COC(=O)CCCCC1SCC2NC(=O)NC21 (centres undefined)
 : 0.2 | .
CC(C)(C)C(=O)COC(=O)Cc1ccc(-c2ccccc2)cc1
 : -0.75 | -0.06
O=S(=O)(c1cccc(C(F)(F)F)c1)N1CCCC1c1cccnc1 (centres undefined)
 : 0.8 | -0.59
CC1(C)CC(=O)C2=C(C1)N(c1ccccc1)C(=O)CC2c1ccc(O)cc1 (centres undefined)
 : . | 0.515
Cc1cnn(C(=S)NCCc2ccccc2)c1
 : -0.8 | 0.015
O=C1CC(c2ccccc2)Cc2[nH]ncc21 (centres undefined)
 : -0.9 | 0.39
CSc1nc(C)cc(C)c1C(N)=O
 : -0.1 | .
CCCC1=C(C(=O)OCC)C(c2cccc3ccccc23)C(C#N)=C(N)O1 (centres undefined)
 : . | 1.24
Cc1ccc(S(=O)(=O)CCN(Cc2cccnc2)C(=O)c2ccccc2)cc1
 : -0.1 | -0.465
COc1cccc(N/C=C(\C#N)C(=O)N2CCOCC2)c1
 : -0.95 | .
Cc1c(C(=O)O)sc(=S)n1-c1ccccc1
 : 0.2 | -0.55
CC(C)(C)c1cnnn1-c1ccc(NC(=O)c2ccc3c(c2)OCO3)cc1
 : -0.2 | 0.52
Cc1ccc(C)c(N2CCN(C(=O)CCCn3c(=O)c4cccn4c4cccnc43)CC2)c1
 : 2.15 | 2.08
COc1cccc(-c2ccc(C#N)c(OC(=O)c3cccc(C(F)(F)F)c3)n2)c1
 : . | 16.3
O=C(Nc1ccccc1)NC1(C(=O)NCc2ccc3c(c2)OCO3)CCCCC1
 : -0.85 | .
CC(Sc1nnc(-c2ccccc2Br)o1)C(=O)Nc1cccc(Cl)c1 (centres undefined)
 : 0.55 | .
COc1ccc(-c2cc(C(F)(F)F)nc(SCC(=O)N(C)C3CCCCC3)n2)cc1
 : 0.25 | -0.57
COC(=O)c1cc2cnccc2nc1-c1cccc(C(F)(F)F)c1
 : . | -0.75
CCN(CC(=O)NC1CCS(=O)(=O)C1)C(=O)c1ccccc1Sc1ccccc1C#N (centres undefined)
 : 1.75 | .
Cc1ccc(S(=O)(=O)NCc2ccc(/C=C(/C#N)C(=O)NC3CCCCC3)o2)cc1
 : -0.5 | .
COc1ccc(-n2c(=O)cc(N3CCCC3)[nH]c2=O)cc1
 : 0.2 | -1.39
O=C(c1cc(C(F)(F)F)cc(C(F)(F)F)c1)c1cc(C(F)(F)F)cc(C(F)(F)F)c1
 : . | -0.025
CC(O)Cc1n[nH]c(=S)n1-c1ccccc1 (centres undefined)
 : -0.7 | 0.37
COC(=O)c1ccc2c(=O)[nH]c(COC(=O)Cc3n[nH]c(=O)c4ccccc34)nc2c1
 : 0.15 | .
CCCCc1c(C)nc2c(OC)cccc2c1SCCC(=O)O
 : 0.5 | 23.1
Clc1ccc(Cn2ncc3c(NC4CCCCC4)ncnc32)cc1
 : 0.1 | 1.4
COc1ccc2cc(C(=O)Nc3ccc(Cl)cc3)c(=Nc3ccc(C(=O)O)cc3)oc2c1
 : . | 0.62
COC(=O)/C(C#N)=C/c1cc(C(=O)OC)n(-c2ccc(Cl)cc2)c1
 : 2.65 | 1.93
Cc1cc2c(cc1[N+](=O)[O-])OCCO2
 : . | -0.65
